Assay outcomes from PubChem BioAssay.
Tgondii IFNg: T. gondii growth inhibition with IFN-gamma, primary screen, cell-based. activity change, negative = inhibition, %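 (about 20 µM by stock and volumes)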. Toxoplasma gondii growth in IFN-gamma-treated host cells; stronger effect = lower value; reference of the scale not given here. hit rate 3.8% among 69,000;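 active = below -70%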;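 also: host cells are HeLa cells infected with Toxoplasma gondii; parasite growth read as luciferase light; one replicate is shown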
* hit, by the source's call; i = inactive; & = joins results of further samples.

SMILES	Tgondii IFNg
CC(C)c1noc(-c2cc(=O)n(CC(=O)NCc3ccccc3F)c3ccccc23)n1	69
CC(C)CN1C2COCC1CN(S(=O)(=O)c1cn(C)cn1)C2	-11
Cc1cc(NC(=O)CCC2CCCCC2)n(-c2ncnc3c2cnn3-c2ccc(Cl)cc2)n1	18
O=C(c1ccco1)N1CCN(S(=O)(=O)c2ccc3[nH]c(=O)ccc3c2)CC1	103
Cn1c(-c2ccccc2)cnc1NC(=O)c1ccc(C2CCN(S(C)(=O)=O)CC2)nc1	-34
CS(=O)(=O)N1CCC2OCCCC2(COc2ncccc2F)C1 (stereo not given)	-31
Cc1cc(C(=O)Nc2cccc3c2O[C@@H](CN(C)C)[C@H](C)CN([C@@H](C)CO)C3=O)n(C)n1	-2
COc1cc(NC(=O)c2ncc(C(F)(F)F)cc2Cl)c(C(=O)O)cc1OC	-29
COc1ccccc1CNC(=O)C[C@H]1C=C[C@@H](NC(=O)CC2CC2)[C@H](CO)O1	-18
C[C@H](NC(=O)C[C@H]1CC[C@H]2[C@@H](COC[C@H](O)CN2Cc2ccc(C(F)(F)F)cc2)O1)c1ccccc1	-6
COC(=O)[C@@H]1C[C@H](NS(=O)(=O)c2ccc(Cl)s2)CN1C	-8
CC(C)CNC(=O)[C@H]1C[C@H]2CN(Cc3ccccc3)C[C@H]1O2	-24
O=C(Nc1ccc(F)cc1Cl)c1c(O)c2cccnc2n(-c2ccc(F)cc2)c1=O	240
CN1C(=O)c2cc(NC(=O)Nc3cccc(C#N)c3)ccc2OC[C@H]2O[C@@H](CC(=O)Nc3ccc4c(c3)CCC4)CC[C@@H]21	-58
CC(C)C1CN(C(=O)COc2cccnc2)CCC(=O)N1CC1CC1 (stereo not given)	15
COc1cccc(CNC(=O)Cn2c(=O)ccc3cc(S(=O)(=O)N4CCCC4)ccc32)c1	-24
Cc1ncc2c(n1)[C@]1(C)CCCN(C(=O)c3cscn3)C1CC2 (stereo not given in full)	-12
C[C@H](NC(=O)C[C@@H]1C=C[C@H](NS(=O)(=O)c2cccc(F)c2)[C@@H](CO)O1)c1ccccc1	31
CC1=C(C(=O)NCCCc2ccccc2)C2(CCN(Cc3ccccc3)CC2)OC1=O	19
C=CCN1C(=O)CCCC12CCCN(c1cc(OC)ncn1)C2 (stereo not given)	2
O=C1NCCN(C(=O)CCC2CCCC2)C1CCO (stereo not given)	7
Cc1nc2sc(C(=O)c3ccc(Br)cc3)c(N)c2c(C)c1C	-95*
CC(C)(C)NS(=O)(=O)c1sc(Br)cc1Br	3
CCC(=O)N1Cc2cc(C(=O)NCc3cccc(F)c3)nc(-c3cccc(C4=CCCC4)c3)c2[C@H]1CCO	-52
O=C(O)c1[nH]c(=O)[nH]c(=O)c1CN1CCCCC1	-6
CCCn1ncc(C(=O)N(C)Cc2nc3ccc(F)cc3[nH]2)c1C	20
COc1ccc(CNC(=O)N2CCCCC2CCN2CCCC2=O)cc1 (stereo not given)	-2
CC(=O)c1ccc(OC(=O)Cc2cc(F)cc(F)c2)cc1	-12
COc1cccc(N2CC3(CCN(c4ccncn4)C3)CC2=O)c1 (stereo not given)	43
Cc1nc(CCNC(=O)CN2C(=O)NC(=O)C2(C)C)sc1C	12
Cc1ccc2cc(C)c3nn(CCNC(=O)c4[nH]c5c(c4C)C(=O)CCC5)c(=O)n3c2c1	-63
COc1ccc(S(=O)(=O)N2CCCC2c2ccnc(Nc3ccccn3)n2)cc1 (stereo not given)	32
c1cnc(N2CCN(Cc3ccc4c(c3)OCO4)CC2)nc1	12&10
O=C(c1ccc(-c2ccsc2)nc1)N1CCC(Oc2cccnc2)CC1	-47
Cc1nc(SCC(=O)NCCc2ccccc2)[nH]c(=O)c1Cc1ccccc1	-21
COc1ccc(OC)c(CNC(=O)Cn2ncc3c(N4CCOCC4)ncnc32)c1	53
O=C(c1cnc(-c2cccnc2)nc1)N(Cc1ccco1)Cc1cccs1	0
OC1CCN(c2ccnc(N3CCC4(CCOCC4)CC3)n2)CC1	-46
CC(=O)c1ccc(NC(=O)N2[C@H]3CCNC[C@@H]2CC3)cc1	20
Cc1cccc(OCCCN(C)C(=O)CN)c1C	13
NCC(=O)N1C[C@H](NC(=O)c2ccccc2)C[C@H]1C(=O)O	26
Cc1cccc(-c2nc(C)c(CCNC(=O)C(=O)Nc3ccc([N+](=O)[O-])cc3)s2)c1	39
COc1ccc(CNC(=O)c2nc(Nc3ccc(C)cc3)c3ccccc3n2)cc1	-29
COc1ccc(-c2nn(C)c(NS(=O)(=O)Cc3ccc(Cl)cc3)c2C)cc1	18
Cc1ccccc1CN1CC2CC(C(=O)N3CCOCC3)C(C1)O2 (stereo not given)	-33
CCCNC(=O)N1CC[C@@H]2[C@@H](CO)N(C)c3ccc(-c4cccc(OC)c4)cc3[C@@H]21	6
c1ccc(CCCCNC2CCC3(CCNCC3)CC2)nc1	-5
CC(C)C(=O)Nc1cccnc1-c1ccc(C(C)N2CCOCC2)cc1 (stereo not given)	0
Cc1ccc(S(=O)(=O)NCCc2csc(-c3ccc(Cl)cc3)n2)s1	-18
Cc1ccc(S(=O)(=O)N2CCC3(CC2)NCCN=C3NCc2ccc(Cl)cc2)c(C)c1	-32
Cc1oc2ncn3nc(C(C)NC(=O)CCc4ccccc4)nc3c2c1C (stereo not given)	11
Cc1cccc(C2c3[nH]c4ccccc4c3CCN2Cc2ccc(C#CC(C)(C)O)cc2)n1 (stereo not given)	27
C[C@@H]1CCCCO[C@@H](CN(C)C(=O)Cc2ccccc2)[C@H](C)CN([C@@H](C)CO)C(=O)c2cc(NS(C)(=O)=O)ccc2O1	243
CC1CCN(S(=O)(=O)c2ccc3c(c2)CCC(=O)N3CC(=O)N2CCCC2)CC1	11
O=C(N[C@@H](CO)c1ccccc1)c1ccc(NC(=O)C2CCC2)cc1	-4
O=C(NC[C@H]1[C@@H](c2ccccc2)[C@H](CO)N1C(=O)C1CCC1)NC1CCCC1	-36
COc1ccc(C#Cc2ccc([C@@H]3[C@H](CO)N4C(=O)CN(C(=O)NC(C)C)C[C@@H]34)cc2)cc1	-37
COc1nccc(-c2c(-c3ccc(F)cc3)ncn2C2CCNCC2)n1	-66
CCc1cccc(NC(=O)Cn2c(=O)cc(C(=O)N3CCc4ccccc4C3)c3ccccc32)c1	-37
COc1ccc(C(C#N)C(C)C)cc1OC (stereo not given)	-29

Of the compounds above, three have two or more sulfur atoms:
SMILES	Tgondii IFNg
COC(=O)[C@@H]1C[C@H](NS(=O)(=O)c2ccc(Cl)s2)CN1C	-8
CC(C)(C)NS(=O)(=O)c1sc(Br)cc1Br	3
Cc1ccc(S(=O)(=O)NCCc2csc(-c3ccc(Cl)cc3)n2)s1	-18

Next section:
SMILES	Tgondii IFNg
CCOc1ccc(S(=O)(=O)N(C)Cc2nc(-c3ccc(C)cc3)oc2C)cc1	3
CNS(=O)(=O)c1ccc(-c2nccn2CCc2ccco2)cc1	-3
COc1c(OC)c2occc2c2oc(=O)ccc12	-40
Cn1cc(CN2C[C@H]3CN(Cc4cccc(F)c4)C[C@H]3C2)cn1	-3
COCCN1C(=O)CCc2cc(NS(=O)(=O)c3ccccc3C)ccc21	-17
COc1ccc(-c2nc(C)c(CCNS(=O)(=O)c3cccc([N+](=O)[O-])c3)s2)cc1OC	438
CCNc1nc(NC(C)C)nc(Nn2cnnc2)n1	0
O=C(NCCc1csc(-c2ccccc2)n1)C1CCN(S(=O)(=O)c2ccc(F)cc2)CC1	1
CO[C@H]1CN(C)C(=O)c2cc(NS(=O)(=O)c3cn(C)cn3)ccc2OC[C@H](C)NC[C@H]1C	348
Cc1ccc(-n2nc3ccc(NC(=O)C(C)NS(=O)(=O)c4ccc(C)cc4)cc3n2)cc1 (stereo not given)	189
N#C[C@@H]1[C@H](c2ccccc2)[C@@H](CO)N1C(=O)c1cc(Cl)cc(Cl)c1	2
CN1CC2(CCN(C(=O)c3cn4ccsc4n3)C2)OC1=O (stereo not given)	10
Cc1c(CN(C)C(=O)COc2cccnc2)[nH]c2ccccc12	67
Cc1cc(C)n(C(C)CC(=O)N[C@H]2C3CCCCC3[C@@H]2c2ccccc2)n1 (stereo not given in full)	-2
COc1ccc(C(CC(=O)N(C)Cc2cnc3ccccn23)c2ccccc2)cc1 (stereo not given)	-50

Some values from above.
For Tgondii IFNg, CCc1cccc(NC(=O)Cn2c(=O)cc(C(=O)N3CCc4ccccc4C3)c3ccccc32)c1 reads -37
For Tgondii IFNg, COC(=O)[C@@H]1C[C@H](NS(=O)(=O)c2ccc(Cl)s2)CN1C reads -8
For Tgondii IFNg, CCCn1ncc(C(=O)N(C)Cc2nc3ccc(F)cc3[nH]2)c1C reads 20
For Tgondii IFNg, COc1nccc(-c2c(-c3ccc(F)cc3)ncn2C2CCNCC2)n1 reads -66

(further entries)
SMILES	Tgondii IFNg
CCCNC(=O)C1Cc2nc(-c3ccsc3)sc2N1C(C)C (stereo not given)	-17
O=C(Nc1ccccc1)[C@H]1C[C@@H]2CN(c3ncc(F)cn3)C[C@H]1O2	-7
c1ccc(CCNc2nnns2)cc1	-97*
COc1ccc(-c2nc(C)c(CCNC(=O)C(=O)Nc3c(C)cccc3C)s2)cc1OC	-15
Cc1nnc(-c2ccc3ccn(CC(=O)Nc4ccccn4)c3c2)o1	100
COc1nc2c(c(-c3ccco3)c1C#N)Cc1cc(NC(C)=O)ccc1-2	8
Cc1ccc(NC(=O)CCNC(=O)c2ccc(-n3cnnc3)cc2)cc1	-3
COc1ccc(S(=O)(=O)N2CCC[C@@H]2C(=O)NCCc2csc(C)n2)cc1Cl	0
Cn1cc(CN(C(=O)c2csc3nc(-c4ccc(F)cc4)cn23)C2CC2)cn1	-43
COc1ccc(OCC2CCN(C(=O)[C@@H]3C[C@@H]4C=C[C@H]3C4)CC2)cc1	112
Cc1cccc(S(=O)(=O)N2C[C@@H](O)COC[C@H]3O[C@H](CC(=O)Nc4ccccc4)CC[C@@H]32)c1	-36
Cc1nnc(C(=O)NC(C)(C)c2nc(C(=O)NCc3ccc(F)cc3)c(O)c(=O)n2C)o1	-1
NCC(=O)Nc1ccc(-n2nc(C(F)(F)F)cc2-c2ccc3c(ccc4ccccc43)c2)cc1	-87*
O=C(c1cccnc1)N1CC[C@@H](OCC2CC2)[C@@H]1Cc1ccccc1	87
CC1=C(C(=O)N2CCc3ccccc3C2)C(c2c(C)noc2C)NC(=O)N1 (stereo not given)	1

Exported bar-delimited: part of the list above
Compound | Tgondii IFNg
COc1ccc(OCC2CCN(C(=O)[C@@H]3C[C@@H]4C=C[C@H]3C4)CC2)cc1 | 112
Cc1cccc(S(=O)(=O)N2C[C@@H](O)COC[C@H]3O[C@H](CC(=O)Nc4ccccc4)CC[C@@H]32)c1 | -36
Cc1nnc(C(=O)NC(C)(C)c2nc(C(=O)NCc3ccc(F)cc3)c(O)c(=O)n2C)o1 | -1
NCC(=O)Nc1ccc(-n2nc(C(F)(F)F)cc2-c2ccc3c(ccc4ccccc43)c2)cc1 | -87*

Further compounds.
SMILES	Tgondii IFNg
Cc1ccc(S(=O)(=O)N(C)C)cc1NS(=O)(=O)c1cc(Cl)sc1Cl	-4
Cc1nc(-c2ccc(Cl)cc2)sc1CCNS(C)(=O)=O	i
COC(=O)C[C@H]1CC[C@H]2[C@H](COc3ccc(NC(=O)c4ccc(C(F)(F)F)cc4)cc3C(=O)N2C)O1	-38
CC1(C(=O)NCc2ccccc2CN2CCCC2=O)CCCCO1 (stereo not given)	4
CCOCC1CN(C(=O)Cc2ccsc2)Cc2nccn2C1 (stereo not given)	4
Cc1cccc(N2CCN(CC(=O)N3CCCC(N(C)C)CC3)CC2)c1 (stereo not given)	-7
O=C(NCc1ccccn1)C1CN(c2cnc3ccccc3n2)CCN1 (stereo not given)	-1
O=C(CC1COCCN1)NCc1cn2ccccc2n1 (stereo not given)	14
COc1cccc(-c2ccccc2CO)n1	2
COc1ccc2c(c1)NC1(CCN(C(=O)Cc3cccc(F)c3)CC1)c1cccn1-2	33
C[C@H]1CN([C@@H](C)CO)C(=O)CCCn2cc(nn2)CO[C@@H]1CN(C)S(=O)(=O)c1cccc(C#N)c1	25
Cc1nc(-c2ccccc2)sc1CCNC(=O)C(=O)Nc1ccc([N+](=O)[O-])cc1	20
C[C@H](CO)N1C[C@H](C)[C@H](CN(C)S(=O)(=O)c2ccccc2)Oc2ccc(NC(=O)C3CC3)cc2C1=O	-29
CCO[C@@H]1C[C@@H]2CN(S(=O)(=O)c3cn(C)cn3)CCN2C1	-3
CN(CCCO)c1nc(C(C)(C)C)nc2c1cnn2C	-1
Cc1nn(CC(=O)N2CCC(O)(CN(C)C)C2)c(=O)c2ccccc12 (stereo not given)	1
Cc1ccc2c(c1)C(CC(=O)N1CCN(C)C3(CCN(C)CC3)C1)C(=O)N2 (stereo not given)	1
CCC(=O)N1[C@@H](C#N)[C@H](c2ccccc2-c2ccccc2)[C@@H]1CO	5
O=C(c1c(F)cccc1F)N1CCN(S(=O)(=O)c2cc3c4c(c2)CCC(=O)N4CCC3)CC1	-30
Cc1nn(C)cc1NC(=O)C[C@@H]1CC[C@H]2[C@H](COc3ccc(NC(=O)c4cccc(F)c4)cc3C(=O)N2C)O1	-38
O=c1c(=O)n2c(nn1CN1CCCCC1)sc1ccccc12	13
CCOC1COC2(CCN(S(=O)(=O)C3CC3)CC2)C1 (stereo not given)	i
O=C(c1ccoc1)N1CC[C@@H](N2CCOCC2)[C@H]1Cc1ccccc1	5
Cc1nccn1-c1ccccc1CNC(=O)C1=NNC(=O)CC1	-2
CO[C@H](CN(C)C(=O)c1ccccc1F)[C@H](C)CN([C@H](C)CO)S(=O)(=O)c1ccc(F)cc1	52
Cn1cccc1C(=O)N1CCC2(CC1)Cc1ccccc1CNC2=O	0
Cc1ccc(NC2(C(=O)NCCN(C)S(C)(=O)=O)CCCC2)cc1	6

Of the compounds above, these contain a COOH group.
SMILES	Tgondii IFNg
COc1cc(NC(=O)c2ncc(C(F)(F)F)cc2Cl)c(C(=O)O)cc1OC	-29
O=C(O)c1[nH]c(=O)[nH]c(=O)c1CN1CCCCC1	-6
NCC(=O)N1C[C@H](NC(=O)c2ccccc2)C[C@H]1C(=O)O	26

Some of the compounds tested; rates above refer to the full screens.
